# ClpP mod = qHTS Assay for Activators of ClpP | ATP-dependent Clp protease proteolytic subunit (Bacillus subtilis (strain 168)), P80244 | 340,000 compounds, 1.9% hits | AID 651965, 2013 | purified B. subtilis ClpP, FRET peptide cleavage, 20 min | Potency, µM (top dose mostly 57.5 µM), without a hit: at the top dose activity change, negative = active; active = well fitted falling curve with a large enough effect; inconclusive = small, poorly fitted or top-dose-only effect; inactive = no such curve, though single readings can be large or run the other way; also: the source files actives as falling curves though it sought activators and does not explain the sign; nearly all actives have a fitted effect of over 65% in size; many hits overshoot -100%
# Target sequence (P80244 whole entry, looked up): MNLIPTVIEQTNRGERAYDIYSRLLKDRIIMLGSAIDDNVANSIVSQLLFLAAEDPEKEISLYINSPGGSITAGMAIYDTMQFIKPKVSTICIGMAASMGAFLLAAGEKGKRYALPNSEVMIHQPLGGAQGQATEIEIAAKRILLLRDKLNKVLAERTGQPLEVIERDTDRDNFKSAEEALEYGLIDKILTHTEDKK
#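 Buffer: 100 mM Tris/HCl pH8, 100 mM KCl, 0.05% low protease BSA, 2.5% glycerol, 0.01% Tween-20. ClpP 10 microg/mL final; 20 min RT; delta FRET normalized to ADEP and DMSO controls.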
# * marks the source's active call; other numbers are inactive results; ? = inconclusive; & = joins results of further samples. Potency is read from the fitted curve at half-maximal effect. This is a subset; the hit share may differ from the screen's.
structure,ClpP mod
COc1cc(NS(=O)(=O)c2ccc(NC(=O)c3ccc(OC)c(Br)c3)cc2)nc(OC)n1,-3.1%
COc1cc(C(=O)Nc2ccc(-c3nc4ccccc4o3)c(O)c2)cc(OC)c1OC,-0.6%
O=C(C(O)c1ccccc1)N1CCN(S(=O)(=O)c2ccc(OC(F)(F)F)cc2)CC1 (centres undefined),-4.4%
Cc1ccc2oc(C(=O)Nc3ccc(S(=O)(=O)Nc4nc(C)cc(C)n4)cc3)cc(=O)c2c1,-3.3%
Cc1c(Cl)cccc1NC(=O)C1CCCN(C(=O)c2cnn(-c3ccccc3)c2-n2cccc2)C1 (centres undefined),0.3%
Cc1ccc(Cl)cc1NC(=O)N1CCC(CN2CCCCCC2)CC1,0.6%
CCn1c(=O)c2cc(C(=O)Nc3cc(C)c(Cl)cc3OC)sc2c2ccccc21,33.2%
COc1ccc(NC(=O)Cn2c(=O)n(-c3ccc(Cl)cc3)c(=O)c3c(C)c(C(=O)N(C)C)sc32)cc1Cl,0.0%
Cc1cc2oc(=O)c(CC(=O)NCCc3ccccc3)c(C)c2c2occ(C(C)(C)C)c12,4.5%
CCOC(=O)Cc1ccc(NC(=O)Nc2nnc(N3CCCCC3C)s2)cc1 (centres undefined),1.1%
CC(=O)c1cc(-c2ccc(F)cc2)n(CCC(=O)Nc2nc3c(C)cccc3s2)c1C,-2.0%
COc1cc(OC)cc(C(=O)Oc2c(Sc3ccccc3)c(C)nn2C(C)(C)C)c1,-5.9%
COc1cccc(CNc2ncnc3onc(C)c23)c1,-4.1%
CCc1cccc(C)c1NC(=O)CN1CCCN(Cc2ccccc2Cl)S1(=O)=O,-1.5%
Cc1cccc(OCC(=O)Nc2ccc3nc(SCc4ccccc4)sc3c2)c1,-0.7%
COC(=O)c1ccc(NC(=O)CN(Cc2ccccc2)S(=O)(=O)c2ccc(C)cc2)cc1,-3.5%
COc1ccc(CNc2ncnc3nc[nH]c23)cc1OC,-1.3%&-0.6%
COc1ccc(C)cc1NC(=O)c1ccc2c(c1)nnn2C1CCCC1,-2.3%
COc1cc2nc(N3CCCN(C)CC3)nc(N3CCN(C)CC3)c2cc1OC,3.8%
COc1ccc(N2CCN(C(=O)C(=O)c3cc(OC)c4ccccc4c3)CC2)cc1,-2.9%
CCOc1cc(C2Nc3ccccc3-c3nnc(SCc4ccccc4)nc3O2)ccc1OC (centres undefined),-8.0%
COc1ccc(OC)c(CNS(=O)(=O)c2ccc3c(c2)oc(=O)n3C)c1,-0.7%
Cc1cccc(N2CCN(C(=O)CN3C(=O)COc4ccc(S(=O)(=O)N5CCC(C)CC5)cc43)CC2)c1C,-0.9%
Cc1nn(-c2ccccc2)c(OC(=O)C(C)(C)C)c1Sc1ccccc1,-3.3%
Cc1ccc2c(c1)c1c(c(=O)n(Cc3ccccc3)c(=O)n1CC(=O)NCc1ccccc1Cl)n2C,?
CCOc1ccccc1N(CC)C(=O)c1cc2c(=O)n(CC)c3ccccc3c2s1,-13.7%
CCc1cccc(NC(=O)CSc2nccn2C)c1,1.1%
CCCCNS(=O)(=O)c1ccc(NC(=O)c2c(-c3ccccc3)noc2C)cc1,-1.0%
CCN(Cc1ccccc1)C(=O)c1cc2c(=O)[nH]c3ccc(C)cc3c2s1,7.1%
COc1cc(-c2nc(Cn3nnc(C(=O)Nc4cc(C)cc(C)c4)c3C)c(C)o2)cc(OC)c1OC,-10.7%
Cc1ccc(NC(=O)CN(CCc2ccccc2)S(=O)(=O)c2ccccc2)c(C)c1,-1.2%
CCn1c(SCc2cccc(Br)c2)nnc1-c1nonc1NC(C)=O,-16.0%
CCOC(=O)c1cccc(NC(=O)c2cc3c(=O)n(C)c4ccccc4c3n2C)c1,?
COc1cccc(N2CCN(C(=O)CN3CCSc4ccccc43)CC2)c1,-1.9%
Cc1ccc(C)c(CNC(=O)C2CCN(c3nc4ccccc4nc3C(F)(F)F)CC2)c1,-14.8%
COc1ccc(C2c3cccn3CCN2S(=O)(=O)c2ccc([N+](=O)[O-])cc2)cc1 (centres undefined),-0.7%
Cc1cccc(CSc2nc3c([nH]c4ccccc43)c(=O)n2C)c1,-1.0%
COC(=O)c1ccc(NC(=O)CC2C(=O)N(c3ccccc3)C(=O)N2Cc2cccs2)cc1 (centres undefined),0.0%
CCn1c(=O)c2cc(C(=O)N3CCN(c4cccc(Cl)c4)CC3)sc2c2ccccc21,-6.5%
CC(C)(C)C(C(=O)NC1CCCC1)N1CCN(c2ncccc2C#N)CC1 (centres undefined),-20.0%
COc1ccc(C(=O)NCC(c2ccco2)S(=O)(=O)c2ccccc2)cc1 (centres undefined),-0.3%
COc1cccc(CNC(=O)c2cccc(-n3c(C)nc4cccnc43)c2)c1OC,1.2%
CCOc1ccc(CNC(=O)C2CCN(S(=O)(=O)c3cn(C)cn3)CC2)cc1,-0.5%
CCc1ccc(-n2c(=O)c3cccnc3n2CC(=O)NCc2ccc(F)cc2)cc1,4.4%
COc1cc(C2CC(=O)N(Cc3cccc(F)c3)c3ccccc3S2)cc(OC)c1OC (centres undefined),-10.2%
Cc1ccc(CNC(=O)CCCn2c(=O)c3ccccc3n(Cc3ccc(Cl)cc3)c2=O)cc1,-2.8%
Cc1ccccc1OCc1ccc(-c2nc(C#N)c(N3CCCCC3)o2)o1,3.9%
CC(C)c1ccc(OCC(=O)Nc2c(Cl)ccc3nsnc23)cc1,-8.3%
Cc1cc(F)ccc1NC(=O)CCn1nc(C)c(S(=O)(=O)N2CCCCC2)c1C,-4.5%
COc1ccc(C(=O)Nc2ccccc2-c2nc3ccccc3s2)c(OC)c1,?

# New compounds follow
structure,ClpP mod
COc1ccc(NCc2cc3ccc(OC)cc3n(CC(=O)Nc3cccc(OC)c3)c2=O)cc1,0.9%
CCOc1ccc(CNC(=O)c2cnc3sc(N4CCOCC4)nn3c2=O)cc1,13.0%
COc1ccc(-c2nc(CN3CCC(C(=O)NCCN(CC(C)C)CC(C)C)CC3)c(C)o2)cc1OC,-12.9%
CCc1ccc(NC(=O)CSc2nc(C)c(C(=O)Nc3ccccc3)c(-c3ccc(OC)c(OC)c3)c2C#N)cc1,4.1%
COc1ccc(S(=O)(=O)N2CCC(n3c(C(F)(F)F)nc4cccnc43)CC2)cc1OC,-4.3%
CC(C)Oc1ccc(C(=O)N2CCCCC2CCN2CCCCC2)cc1 (centres undefined),-0.6%
CC(C)[C@@H]1Cc2[nH]c(=S)[nH]c(=O)c2[C@H](C)O1,0.5%
N#Cc1nc(-c2ccc(COc3ccccc3)o2)oc1N1CCCCC1,31.6µM*
O=S(=O)(c1cccc(F)c1)N1CCC(Oc2ccc(-n3cnnn3)cc2)CC1,0.7%
CC(C)(C)OC(=O)N1CCC(c2c(C(=O)N3CCCCC3)cnn2-c2ccc(F)cc2F)CC1,2.5%
Cc1ccc2oc(C(=O)Nc3cccc(-c4nc5ccccc5s4)c3)c(C)c2c1,?
Nc1ccc2nc(-c3ccc(O)cc3)sc2c1,21.9%
CCN(CC)C(=O)c1sc(NC(=O)C(C)Sc2nc(-c3ccccc3)cc(C(F)(F)F)n2)c(C(=O)OC)c1C (centres undefined),-4.9%
CCc1cccc(NC(=O)c2cc(-c3ccccc3)n[nH]2)c1,-2.0%
COc1cc2ccccc2cc1C(=O)N1CCN(c2nc3c(F)cccc3s2)CC1,-5.2%
Oc1ccccc1-c1nc2cnccn2c1Nc1ccc(Cl)cc1,-4.0%
COc1ccc(S(=O)(=O)NCCc2sc(-c3cccc(F)c3)nc2C)cc1,3.7%
CN(C)c1ccc(/C=C2\C(=O)/C(=C\c3ccc(N(C)C)cc3)c3ccccc32)cc1,-0.5%
COc1ccc(OC)c(NC(=O)Cn2cnc3sc(C)c(S(=O)(=O)N4CCN(c5ccccc5OC)CC4)c3c2=O)c1,0.0%
CCCN(C(=O)CCc1nc(-c2ccc(C)cc2)no1)c1ccc(OCC)cc1,1.5%
COc1ccccc1NC(=O)CSc1nnc(NC(=O)Nc2ccc(C)cc2)s1,-0.3%
Cc1cccc(N2CCN(C(=O)CCc3c(C)nc4c(c3C)c(=O)n(C)c(=O)n4C)CC2)c1C,-0.3%
Cc1cccc(CNC(=O)c2cc3cc(S(=O)(=O)N4CCCCC4)ccc3n2C)c1,?
CCOc1ccccc1CNCc1c(C(=O)O)c(C)n(Cc2ccc(C)cc2)c1C,1.0%
COC(=O)c1c(NC(=O)c2ccc(C(C)(C)C)cc2)sc2c1CCC(C)C2 (centres undefined),4.2%
CCOc1ccc(-n2nc3ccc(NC(=O)c4ccc(OC)c(Cl)c4)cc3n2)cc1,?
COc1ccc(-n2nc3c(c2NC(=O)C(=O)NCc2ccccc2)CSC3)cc1,-0.2%
COC(=O)c1sccc1S(=O)(=O)N(CC(=O)NCc1ccccc1)c1ccc(C)c(C)c1,2.0%
O=S(=O)(c1ccccc1)c1nnn2c1nc(NC1CCCCC1)c1sccc12,-11.9%
Cc1cccc(CN2CCC(CNC(=O)Cn3ncc4c([nH]c5ccc(C)cc54)c3=O)CC2)c1,-19.3%
O=C(NC1(C(F)(F)F)C(=O)Nc2c1c(=O)[nH]c(=O)n2-c1ccccc1)c1ccccc1 (centres undefined),-3.0%
Cc1[nH]c2ccccc2c1C(=O)C(=O)NC1CC(=O)N(c2ccccc2)C1 (centres undefined),0.1%
CCc1ccc(-n2c(=O)c3sc4ccccc4c3n(CC(=O)NC3CCCC3)c2=O)cc1,4.6%
Cc1ccc2nc(-c3ccccc3)c(Cc3ccsc3)n2c1,4.8%
CC(=O)c1cccc(NC(=O)C2CCN(S(=O)(=O)c3ccc4c(c3)CCCN4C(C)=O)CC2)c1,-0.2%
Cc1ccc(C)c(C(=O)CSc2nc(-c3ccccc3)nc3c2CCCC3)c1,-0.6%
O=C(CCCN1C(=O)C(c2ccccc2)Oc2cccnc21)Nc1ccccc1C(F)(F)F (centres undefined),-0.1%
CCCCn1c(NCc2cc(Cl)ccc2O)nc2ccccc21,0.2%
Cc1ccc(OCC(=O)Nc2ccc(S(=O)(=O)Nc3cc(C)nc(C)n3)cc2)c(Br)c1,0.0%
COc1ccc(-n2c(SCC(=O)NC3CCCCC3)nc3c([nH]c4ccccc43)c2=O)cc1,-4.2%
CC(=O)Nc1ccc(/C=C2\C=Cc3ccccc32)cc1,2.0%
COc1cc(C2CC(=O)Nc3cc4c(cc32)OCCO4)cc(OC)c1O (centres undefined),-1.3%
Cc1ccc(Cl)cc1N1CCN(C(=O)c2cc(S(=O)(=O)N3CCCCCC3)cn2C)CC1,-0.3%
Cc1ccc(NC(=O)c2c(C)oc3ncn(C)c(=O)c23)cc1F,0.2%
COc1ccc(NC(=O)/C(C#N)=C/c2ccc(OCc3cc(=O)n4nc(C)sc4n3)cc2)cc1,-1.5%
Cc1ccc(C(=O)NCCSc2c[nH]c3ccccc23)cc1C,-0.2%
COc1cccc(-c2nc(CS(=O)(=O)CC(=O)NCc3cccc(Cl)c3)c(C)o2)c1,-9.3%
COc1ccc(-n2nnnc2C2CCN(S(=O)(=O)c3cc(Cl)ccc3OC)CC2)cc1,-14.8%
CCC(=O)Nc1cccc(-c2cn3c(C)csc3n2)c1,0.1%
COc1ccc(C)cc1NC(=O)Cn1c(=O)oc2cc(S(=O)(=O)N3CCCCC3)ccc21,0.2%

# Remaining list, next part
structure,ClpP mod
COc1ccc(NS(=O)(=O)c2ccc3c(c2)CCCN3C(=O)C2CCC2)cc1OC,0.5%
CN(C)S(=O)(=O)N(CC(=O)NCCSCc1ccccc1Cl)c1ccccc1,-3.0%
CCOc1ccc(C2C(C(N)=O)=C(C)Nc3nc(-c4ccc(OC)cc4)nn32)cc1 (centres undefined),31.6%
CC(C)c1ccc(CN(Cc2ccco2)c2cnc(S(C)(=O)=O)nc2C(=O)Nc2ccc(F)cc2)cc1,-4.8%
CCc1ccc(NC(=O)CNC(=O)Cn2c(C)cc3ccccc3c2=O)cc1,-6.4%
COc1ccccc1CC(=O)NO,-0.1%
Cc1ccccc1-c1nnc(CN2CCN(c3cccc(C)c3C)CC2)o1,-1.0%
CCCCN(C)CCCNC(=O)Cn1nc(CC)n2c(cc3sc(C)cc32)c1=O,-12.3%
COc1cc2[nH]c(=O)n(CCCC(=O)NCc3ccccc3)c(=O)c2cc1OC,4.6%
COc1ccc(C2c3c(n(C)c4ccccc34)C(=O)N2CC(=O)Nc2cccc(F)c2)cc1 (centres undefined),?

# High-throughput results: PubChem BioAssay, National Center for Advancing Translational Sciences (NCATS)
